# Source: PubChem
# RecA intein inh: Mtb RecA intein splicing inhibitors, primary screen, biochemical, fluorescence, HTS | Protein RecA (Mycobacterium tuberculosis (strain ATCC 25618 / H37Rv)), P9WHJ3 | cell-free RecA intein splicing | inhibition, %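 (about 9 µM by stock and volumes)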 | 0.75% of 290,000 active | AID 2221, 2009; in the data active means inhibition above about 30%; inconclusive means no clear call, values can overlap the other calls;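 further: 0% = vehicle wells and 100% = reference inhibitor control wells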
# Target sequence (P9WHJ3 whole entry, looked up): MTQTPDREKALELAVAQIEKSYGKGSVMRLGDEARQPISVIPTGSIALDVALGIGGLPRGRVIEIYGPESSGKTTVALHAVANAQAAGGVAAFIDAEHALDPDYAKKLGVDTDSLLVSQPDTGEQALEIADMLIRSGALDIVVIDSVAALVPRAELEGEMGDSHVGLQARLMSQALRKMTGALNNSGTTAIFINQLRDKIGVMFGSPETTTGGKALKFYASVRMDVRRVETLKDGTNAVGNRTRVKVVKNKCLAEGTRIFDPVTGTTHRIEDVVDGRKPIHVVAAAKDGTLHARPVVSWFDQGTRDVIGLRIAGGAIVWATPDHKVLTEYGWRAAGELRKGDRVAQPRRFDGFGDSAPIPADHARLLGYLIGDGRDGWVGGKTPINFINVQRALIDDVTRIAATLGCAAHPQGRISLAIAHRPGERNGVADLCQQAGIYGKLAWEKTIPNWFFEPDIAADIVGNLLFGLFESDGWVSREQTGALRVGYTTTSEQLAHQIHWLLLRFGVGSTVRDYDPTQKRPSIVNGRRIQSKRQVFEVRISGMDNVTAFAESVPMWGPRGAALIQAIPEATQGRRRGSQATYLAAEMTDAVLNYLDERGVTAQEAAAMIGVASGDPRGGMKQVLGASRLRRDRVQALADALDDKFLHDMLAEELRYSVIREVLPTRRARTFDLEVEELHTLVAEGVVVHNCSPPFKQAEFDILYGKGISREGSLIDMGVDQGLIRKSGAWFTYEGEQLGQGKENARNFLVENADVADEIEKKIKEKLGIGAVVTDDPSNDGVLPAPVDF
# YopH inh: YopH tyrosine phosphatase inhibitors, primary screen, biochemical, fluorescence Ex485/Em525. inhibition, %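 (about 10 µM by stock and volumes)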. AID 898, 2007. 0.16% of 140,000 active;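 active means inhibition of 50% or more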;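 further: controls were vehicle for no effect and minimum signal wells for full effect; inactives centre near -20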
# Mtb betalactam: beta-lactam sensitization of Mtb H37Rv, H37Rv | M. tuberculosis H37Rv growth with meropenem, percent inhibition; hits of this screen are not shown here | inhibition, % at 25 µM | 0.27% of 330,000 active | AID 434955, 2010;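 active means about 74% or more and at least 40 points above the plate without the antibiotic, then above 30% in a dose series; inconclusive means first-round hits that could not be retested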;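 further: growth measured after seven days incubation then overnight dye step; 0% = bacteria only wells and 100% = bacteria with antibiotic; twin plates without the antibiotic show which effects depend on it; some results filed as inactive read as strong as hits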
# Arbovirus anti: antivirals against arbovirus infection, primary screen, cell-based, full library, 10K replicate subset; arbovirus infection cell-based antiviral screen; inhibition, % at 10 µM; 0.37% of 200,000 active;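 active means inhibition from about 30%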;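 further: bluetongue infection of BSR cells; cell survival read as ATP light after 72 h; 0% = infected wells without compound and 100% = uninfected wells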
# Mtb H37Rv: M. tuberculosis H37Rv growth inhibitors, H37Rv strain (AID 1626); 0.95% of 220,000 active; M. tuberculosis H37Rv growth inhibition; higher % means a stronger effect; inhibition, % at 10 µM; hits with a dose series show IC50 in µM;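 active means confirmed in a dose series; inconclusive means inhibition above 80% but not taken into the dose series; inactive means below 80% or under 30% at every dose of the series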;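 further: bacteria incubated seven days before Alamar blue readout; 0% = bacteria only wells and 100% = bacteria with antibiotic wells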
# Arbovirus anti repeat: also measured in Arbovirus anti; calls as there; inhibition, %; measured here: 10K subset replicate screen; many hits read low in the repeat;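 first of two repeat runs on a subset; 0% = infected and 100% = uninfected wells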
# * marks the source's active call; other numbers are inactive results; ? = inconclusive; . = no result given. An excerpt; rates above refer to the full screens.
SMILES,RecA intein inh,YopH inh,Mtb betalactam,Arbovirus anti,Mtb H37Rv,others
CC(=O)c1cc(CN2CCN(CCc3ccccc3)C(CCO)C2)cs1 (stereo not given),-1.2,.,0,1,0%,
CCCCNC(=O)c1nn2c(C(F)(F)F)cc(-c3ccccc3)nc2c1Br,-46,.,4,.,.,
CC(C)n1nc(C(=O)Oc2cccc(Cl)c2Cl)c2ccccc2c1=O,14,-16,-9,-10,2%,
O=C(OCc1ccc([N+](=O)[O-])cc1)c1ccc(N2CCCC2)c([N+](=O)[O-])c1,0.9,-16,-3,-11,-7%,
Cc1nn(-c2ccccc2)c2sc(C(=O)O)cc12,-0.5,-24,10,4,-3%,
CCC(CC)COC(=O)C(C#N)c1nc2ccccc2nc1N1CCN(CC)CC1 (stereo not given),-6.8,-40,99,-32,?,
CCOC(=O)CNC(=O)c1cccnc1Oc1ccc(Cl)cc1,-0.1,.,.,.,4%,
CN(c1ccc(C(=O)Nc2nccs2)cc1)S(=O)(=O)c1ccccc1,0.7,-31,?,13,5%,
COc1ccc(-c2[nH]ncc2CN(CCO)CC23CC4CC(CC(C4)C2)C3)c(OC)c1,1.2,.,-11,7,7%,
CSc1ccn(CCC(=O)O)c(=O)n1,0.0,-21,-4,6,-8%,
CCCS(=O)(=O)Nc1c(OC)ccc2c1c(C(=O)OCC)c(C)n2C,-3.3,4,-4,9,4%,
CCOC(=O)c1c(C)oc2c1cc(NS(=O)(=O)c1ccc(C(=O)O)cc1)c1ccccc12,21,.,-3,.,.,
Cc1ccc(N(CN2C(=O)NC(C)(C)C2=O)CN2C(=O)NC(C)(C)C2=O)cc1,.,-47,0,-8,-7%,
O=C(NC1CCCCC1)c1ccccc1NC(=O)C1CC(=O)N(c2ccccc2)C1 (stereo not given),1.8,-28,10,4,2%,
COc1ccc(C(=O)NNC(=O)CN2CCC(n3nnc4cc(C(F)(F)F)ccc43)CC2)cc1,.,-38,2,1,-3%,
COC(=O)C(C)Oc1ccc(-c2nccc(-c3cccs3)n2)cc1 (stereo not given),6.9,-38,100,-2,0.83µM*,
COc1ccc(/C(C)=N/NC(=S)NCCc2ccccc2)c(O)c1,4.0,.,80,.,.,
CN1CCN(C(=O)CN(Cc2ccc(Cl)cc2)S(C)(=O)=O)CC1,.,-13,-8,7,5%,
COc1ccc(NC(=O)c2c(N)no[n+]2[O-])c(OC)c1,1.9,.,2,-13,7%,
COc1cc(CNC(=O)C2CCCN2S(=O)(=O)c2ccccc2)cc(OC)c1OC (stereo not given),0.5,.,1,4,-3%,
Clc1ccc(OCCOCCN2CCCCC2)c(Br)c1,-0.5,-19,-1,-16,-5%,
O=C(NC(Cc1ccc(O)cc1)C(=O)O)c1ccco1 (stereo not given),-5.6,.,3,3,-10%,
CC(O)/C=C/c1ccc2ccccc2n1 (stereo not given),4.6,-51,.,0,10%,
COc1ccc(CCNCc2cccc(C(F)(F)F)c2)cc1OC,-0.4,.,-3,1,5%,
N#CCCS(=O)(=O)c1ccc(N)cc1,2.6,-9,-3,2,3%,

# (listing goes on)
SMILES,RecA intein inh,YopH inh,Mtb betalactam,Arbovirus anti,Mtb H37Rv,others
COc1cccc(CNC(=O)Cc2nc3nc(C)cc(C)n3n2)c1,-1.6,-7,1,-12,-2%,
O=[N+]([O-])c1ccc(N2CCN(c3ccc(Cl)nn3)CC2)cc1NC1CC1,-3.9,16,-7,.,-2%,
C=CCn1c(-c2ccoc2C)n[nH]c1=S,-0.8,-19,2,7,-3%,
COc1ccc(C(=O)Nc2ccccc2C(=O)N/N=C/c2ccco2)cc1,5.2,-13,2,-5,4%,
COc1ccc(CNC(C)C23CC4CC(CC(C4)C2)C3)c(OC)c1OC (stereo not given),0.8,.,0,.,.,
S=C(NCCCc1ccccc1)Nc1ccccc1,-2.7,.,-1,.,.,
COCCCNC(=O)COc1ccc(-c2nccc(-c3ccccn3)n2)cc1,-4.0,-28,42,6,1%,
NC(=O)C1CCN(C(=O)CN2C(=O)c3ccccc3S2(=O)=O)CC1,-0.8,-36,-4,2,-6%,
O=C(CSc1ccc([N+](=O)[O-])cn1)Nc1ccccc1N1CCOCC1,-1.4,.,4,.,.,
c1cncc(CNC2CCCc3ccccc32)c1 (stereo not given),0.3,-13,2,4,1%,
Cc1nc(SCC(=O)NC2CCCCC2)[nH]c(=O)c1C,2.7,.,100,.,73%,
COc1ccc(Cl)cc1-n1c(C)cc(C(=O)O)c1C,0.6,-45,35,15,-8%,
C/C(=N\N1CCN(Cc2ccc(Cl)cc2)CC1)c1ccc(F)cc1,0.6,.,13,.,-14%,
Cc1ccc(/C=N/Nc2nc(Cl)c(Cl)cc2Cl)s1,0.0,0,-12,11,7%,
CCOC(=O)C1(Cc2ccccc2Cl)CCN(Cc2csc(C(C)=O)c2)CC1,2.6,.,4,-5,5%,
CC(=O)N1CCC(=NNS(=O)(=O)c2ccc(C)c([N+](=O)[O-])c2)CC1,0.5,-20,5,-3,-7%,
O=C(NCc1ccco1)C1CC(=O)N(c2ccc(Cl)cc2)C1 (stereo not given),-2.8,.,-4,1,2%,
CCn1c(SCC(=O)N2CCc3ccccc32)nnc1-c1c[nH]c2ccccc12,1.2,-13,19,-6,-15%,
CCOC(=O)[C@@H]1[C@H]2COc3ccc(Br)cc3[C@@H]2N2C(=O)N(c3ccc(Br)cc3)C(=O)[C@]12C,2.8,.,3,.,.,
COc1ccc(C2NC(=S)NC3=C2CCc2ccccc23)cc1OC (stereo not given),46*,-22,-3,-8,1%,
Cc1ccc(NC(=O)N(Cc2ccc3c(c2)OCO3)Cc2cc3cc4c(cc3[nH]c2=O)OCCO4)cc1,7.0,-42,12,-9,1%,
Cc1cc(C)cc(NC(=O)C(=O)NCCCN2CCCC2=O)c1,1.6,.,-4,.,.,
CCOc1ccc(CNC(=O)C2CCC(=O)N2C2CCCC2)cc1OC (stereo not given),0.0,-8,-1,2,1%,
CCC(C)[C@H](NC(=O)NCc1ccc(Cl)cc1)C(=O)O (stereo not given in full),2.2,.,-8,.,-8%,
CCOC(=O)C1(CCOc2ccccc2)CCN(Cc2cccc(OC)c2)CC1,2.4,.,0,.,.,

# As a short view, 5 of the compounds above.
SMILES,RecA intein inh,YopH inh,Mtb betalactam,Arbovirus anti,Mtb H37Rv,others
O=C(NC(Cc1ccc(O)cc1)C(=O)O)c1ccco1 (stereo not given),-5.6,.,3,3,-10%,
CC(O)/C=C/c1ccc2ccccc2n1 (stereo not given),4.6,-51,.,0,10%,
COc1ccc(CCNCc2cccc(C(F)(F)F)c2)cc1OC,-0.4,.,-3,1,5%,
N#CCCS(=O)(=O)c1ccc(N)cc1,2.6,-9,-3,2,3%,
COc1cccc(CNC(=O)Cc2nc3nc(C)cc(C)n3n2)c1,-1.6,-7,1,-12,-2%,

# (more compounds)
SMILES,RecA intein inh,YopH inh,Mtb betalactam,Arbovirus anti,Mtb H37Rv,others
O=C(CCn1nnc2ccccc21)N/N=C\Cc1ccccc1,-0.2,.,0,2,-4%,
O=C(Nc1nc(-c2ccc(-c3ccccc3)cc2)cs1)C1CCCO1 (stereo not given),1.7,16,58,7,3%,
CN(Cc1nccs1)C(=O)c1ccc2nc(Cc3ccccc3F)oc2c1,1.3,.,2,.,.,
O=S(=O)(c1cc(-c2nnc(-c3ccc(Br)cc3)o2)ccc1Br)N1CCCCCC1,-0.9,-35,-3,-16,10%,
COc1ccc(N2CCN(c3nc4cc(C)ccc4cc3C=O)CC2)cc1,2.3,.,19,.,.,
Cn1c(=O)nc2n(Cc3ccccc3)c3ccccc3cc-2c1=O,-73,-6,2,12,6%,
Nc1ccc(-c2nc3cc([N+](=O)[O-])ccc3o2)cc1,1.2,.,1,.,7%,
CCc1cccc(C)c1NC(=O)COC(=O)CNS(=O)(=O)/C=C/c1ccccc1,0.0,-11,-2,-4,6%,
CCOc1ccc2oc(-c3ccccc3)c(C(=O)O)c2c1,0.2,20,-3,19,2%,
O=C(NCC(=O)N(c1ccccc1F)C(C(=O)NC1CCCC1)c1cccnc1)c1ccco1 (stereo not given),0.2,.,-13,.,.,
Cc1cc(Br)ccc1OCCN1CC(C)OC(C)C1 (stereo not given),-1.5,.,-13,-5,6%,
O=C(COc1ccc2cc(-c3ccccc3)c(=O)oc2c1)NCC1CCC(C(=O)O)CC1 (stereo not given),-2.5,.,2,.,.,
COc1ccc(-c2cc(C(=O)NCCCn3ccnc3)no2)cc1OC,-2.0,-5,-6,-2,-1%,
NNC(=S)Nc1ccc(S(=O)(=O)N2CCOCC2)cc1,-1.4,.,-5,.,-9%,
Cc1nn(C)c(C)c1S(=O)(=O)N1CCCC(C(=O)N2CCN(c3ccccc3)CC2)C1 (stereo not given),18,-14,-2,0,.,
COc1ccc(C(C(=O)NC2CCCC2)N(C(=O)c2ccco2)c2cc3c(cc2C(C)=O)OCO3)cc1OC (stereo not given),14,.,-3,.,.,
CCN(CC)CCN1C(=O)c2cccc3cc(N)cc(c23)C1=O,46*,.,1,.,-7%,
OCCN1C2=NCCCN2c2ccccc21,2.4,.,-7,.,.,
CC1CC(C)CN(S(=O)(=O)c2cccc3cccnc23)C1 (stereo not given),1.6,-49,8,0,-6%,Arbovirus anti repeat=-5
COc1ccccc1S(=O)(=O)Cc1ccc(C(=O)N2CCOCC2)o1,0.1,-17,-4,10,-5%,Arbovirus anti repeat=0
Cc1noc(NC(=O)c2cccc(Cl)c2Cl)c1C#N,0.3,.,2,22,-1%,
COc1ccc(/C=C2/C(=O)ON=C2c2ccccc2)cc1OC,1.1,-38,2,5,1%,
O=C(CCc1ccccc1)NNC(=O)c1ccccc1F,1.6,.,-1,3,3%,
N#CC1=C(N)OC2=C(C(=O)CCC2)C1c1ccc2c(c1)OCO2 (stereo not given),-5.3,.,2,.,.,
C[C@H](NC(=O)c1nc[nH]c1C(=O)NCc1ccc(CNC(=O)OC(C)(C)C)cc1)C(=O)OC(C)(C)C,2.6,.,0,-5,-9%,

# Among those listed so far, these have a cyano group:
SMILES,RecA intein inh,YopH inh,Mtb betalactam,Arbovirus anti,Mtb H37Rv,others
CCC(CC)COC(=O)C(C#N)c1nc2ccccc2nc1N1CCN(CC)CC1 (stereo not given),-6.8,-40,99,-32,?,
N#CCCS(=O)(=O)c1ccc(N)cc1,2.6,-9,-3,2,3%,
Cc1noc(NC(=O)c2cccc(Cl)c2Cl)c1C#N,0.3,.,2,22,-1%,
N#CC1=C(N)OC2=C(C(=O)CCC2)C1c1ccc2c(c1)OCO2 (stereo not given),-5.3,.,2,.,.,

# Next structures follow:
SMILES,RecA intein inh,YopH inh,Mtb betalactam,Arbovirus anti,Mtb H37Rv,others
CCc1nc2ccccc2c(=O)n1NC(=O)c1c(O)c2cccc3c2n(c1=O)CCC3,-1.6,-38,3,6,-6%,
O=C(O)CCCCCNC(=O)OCC1c2ccccc2-c2ccccc21,-2.6,.,8,.,.,
O=c1c2cnn(-c3ccccc3)c2ncn1Cc1cccnc1,1.1,-25,-7,5,-9%,
COc1cc(/C=N\NC(=O)CC#N)ccc1OC/C=C/c1ccccc1,3.2,.,13,.,.,
OC(CNC1CCCCCCC1)c1ccccc1 (stereo not given),.,.,-5,10,6%,
Cc1cccc(Cc2c(C)nc3c(C(=O)N4CCN(Cc5ccc6c(c5)OCO6)CC4)cnn3c2C)c1,15,-31,97,-21,16%,
